Screens: PubChem BioAssay, National Center for Advancing Translational Sciences (NCATS)
EPAC2 ag = activates human EPAC2 exchange factor; EPAC2 activation, biochemical qHTS; response scale: 100% = 6.5 mM cAMP response; Potency, µM (series often up to 154 µM), for the others: at the top dose activation, actives largely listed as activators; hit rate 0.079% among 360,000; note: nearly all actives have a fitted effect of over 50% in size
Target sequence (Q8WZA2 whole entry, looked up): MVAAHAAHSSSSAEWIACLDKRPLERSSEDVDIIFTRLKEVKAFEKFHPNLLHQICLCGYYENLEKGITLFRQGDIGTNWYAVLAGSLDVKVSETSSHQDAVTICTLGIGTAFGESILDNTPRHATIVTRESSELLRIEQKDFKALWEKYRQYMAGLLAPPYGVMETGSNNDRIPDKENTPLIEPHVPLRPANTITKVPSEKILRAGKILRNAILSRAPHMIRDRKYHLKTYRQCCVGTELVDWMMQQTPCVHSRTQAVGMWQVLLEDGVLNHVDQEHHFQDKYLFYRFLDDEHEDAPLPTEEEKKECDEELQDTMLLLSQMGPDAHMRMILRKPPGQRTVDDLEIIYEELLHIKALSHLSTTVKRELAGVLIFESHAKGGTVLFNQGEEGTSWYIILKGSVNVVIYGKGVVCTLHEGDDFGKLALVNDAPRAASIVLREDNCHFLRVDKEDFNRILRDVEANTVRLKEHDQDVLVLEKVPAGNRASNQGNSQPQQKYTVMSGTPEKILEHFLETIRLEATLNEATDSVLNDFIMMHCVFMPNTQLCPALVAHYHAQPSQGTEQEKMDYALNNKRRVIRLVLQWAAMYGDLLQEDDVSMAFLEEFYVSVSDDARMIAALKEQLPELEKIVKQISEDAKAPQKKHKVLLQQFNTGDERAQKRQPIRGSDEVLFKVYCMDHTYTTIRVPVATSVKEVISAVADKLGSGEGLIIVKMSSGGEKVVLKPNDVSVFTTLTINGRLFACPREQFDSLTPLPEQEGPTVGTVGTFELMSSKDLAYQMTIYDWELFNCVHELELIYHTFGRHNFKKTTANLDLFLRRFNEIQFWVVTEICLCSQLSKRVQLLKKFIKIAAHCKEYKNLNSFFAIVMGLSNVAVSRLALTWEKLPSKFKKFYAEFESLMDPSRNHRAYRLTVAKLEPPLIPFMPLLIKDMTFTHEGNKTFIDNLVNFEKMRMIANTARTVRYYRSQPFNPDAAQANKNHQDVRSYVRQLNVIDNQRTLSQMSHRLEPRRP
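Nucleotide exchange monitored as fluorescence drop when BODIPY-GDP leaves Rap1B. Reaction: 100 nM EPAC2, 250 nM RAP1B-BODIPY-GDP, 50 uM GDP, room temperature, kinetic read over 30 min. Activity expressed relative to 6.5 mM cAMP.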
EPAC2 antagonist = blocks human EPAC2 exchange factor; Q8WZA2; hit rate 0.18% among 360,000; AID 720708; EPAC2 GEF exchange of Rap1B-BODIPY-GDP, fluorescence; Potency, µM (doses to about 114 µM), for the others: top-dose activity, negative = inhibition, actives largely listed as inhibitors; note: % is set by controls: 0 for no effect and ±100 for the full control effect; nearly all actives have a fitted effect of over 45% in size; many of its hits are not listed in these tables
Abeta yeast res = restores growth of yeast expressing A-beta42 peptide. AID 1347071. hit rate 0.063% among 410,000. yeast expressing A-beta42, growth rescue, OD600, 48 h; response scale: 0% DMSO, 100% iron-clioquinol control. Potency, µM (series often up to 46.1 µM), inactives show at the top dose growth rescue, most hits filed as activators; note: nearly all actives have a fitted effect of over 55% in size
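Yeast growth medium received pinned compounds, then yeast cells expressing toxic A-beta were added; plates incubated at 30 C for 48 hr. Growth read as absorbance at 600 nm, normalized to DMSO and equimolar FeCl3 plus clioquinol controls.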
aSyn rescue = inhibitors of alpha-synuclein toxicity in yeast | Yeast expressing alpha-synuclein, growth rescue, BacTiter-Glo, 24 h | Potency, µM (highest dose often 46.1 µM), for the others: top-dose growth rescue (activation), usual class: activators | hit rate 0.14% among 370,000; note: % of control where 0% means no effect; nearly all actives have a fitted effect of over 65% in size
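Rescue of yeast growth: cells expressing toxic alpha-synuclein, induced in galactose at OD600 0.02, incubated with compound 24 h at 30 C. ATP luminescence quantified growth; inhibitors of toxicity appear as activators.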
FUS yeast rescue = suppressors of FUS proteinopathy in yeast | Potency, µM (highest dose often 76.6 µM), for the others: top-dose growth rescue (activation), actives largely listed as activators | AID 1347120 | hit rate 0.24% among 390,000 | S. cerevisiae FUS-expressing, growth rescue, OD600, 24 h;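 note: plate controls were DMSO vehicle for no effect and reference control for full effect; nearly all actives have a fitted effect of over 55% in size; some results filed as inactive show a strong effect at the top dose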
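Restored growth of FUS-toxic S. cerevisiae, read as 600 nm absorbance after 24 h at 30C in galactose medium (starting OD 0.005). Controls CP55940 and DMSO.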
TDP43 rescue = rescues yeast growth from TDP-43 toxicity | hit rate 1.8% among 410,000 | AID 652104 | TDP-43 expressing yeast growth rescue, BacTiter-Glo, 24 h | Potency, µM (top dose mostly 46.1 µM), without a hit: at the top dose growth rescue (activation), hits mostly activators; note: % of control where 0% means no effect; nearly all actives have a fitted effect of over 50% in size
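Growth rescue of TDP-43-toxic yeast measured as ATP luminescence (BacTiter-Glo). Cells grown to mid-log in raffinose, induced in galactose at OD600=0.02, exposed to compound 24 hr at 30 deg C.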
An asterisk follows results filed as active; ? = inconclusive; . = no result given; & = joins results of further samples; [ ] = dose if it differs, or a comment. Calls come from the whole dose curve; as a rule, active = well fitted curve in the direction sought with a large enough effect; inconclusive = small, poorly fitted or top-dose-only effect, or another doubt; inactive = no such curve, though single readings can be large; an effect the other way counts as inactive or inconclusive. Potency is the fitted concentration of half-maximal effect. The list is partial (hit frequency here may not be typical).

No. | SMILES | EPAC2 ag | EPAC2 antagonist | Abeta yeast res
1 | CC(=O)O[C@H]1C(=O)[C@@]2(C)[C@H]([C@H](OC(=O)c3ccccc3)[C@]3(O)C[C@H](OC(=O)[C@H](O)[C@@H](NC(=O)c4ccccc4)c4ccccc4)C(C)=C1C3(C)C)[C@]1(OC(C)=O)CO[C@@H]1C[C@@H]2O | 10% | 4% | -17%
2 | CC(C)(C)C(=O)OCOP(=O)(COCCn1cnc2c(N)ncnc21)OCOC(=O)C(C)(C)C | . | . | .
3 | COc1cc(N)c(Cl)cc1C(=O)NC1CCN(Cc2ccccc2)CC1 | 2% | -1% | -23%
4 | c1coc(CNc2ncnc3nc[nH]c23)c1 | 7% | -12% | -4%
5 | COc1ccc(CCN2CCC(Nc3nc4ccccc4n3Cc3ccc(F)cc3)CC2)cc1 | -3% | 15% | -9%
6 | Oc1cc2c(c(Cl)c1O)CCNCC2c1ccccc1 (centres undefined) | 4% | -6% | -18%
7 | COc1ccc(Cl)cc1C(=O)NCCc1ccc(S(=O)(=O)NC(=O)NC2CCCCC2)cc1 | 9% | -14% | -5%
8 | O=[N+]([O-])c1c(Nc2cccc(O)c2)cc(Cl)c2nonc12 | 2% | -1% | -70%[inhibitor]

No. | aSyn rescue | FUS yeast rescue | TDP43 rescue
1 | 2%&0% | 21% | 7%
2 | . | 21% | .
3 | -6% | -22% | 22%
4 | 3%&3% | -22% | 23%
5 | -16% | -15% | 8%
6 | 7%&6% | 5% | ?
7 | 10%&12% | 32% | 19%
8 | -14% | 9% | -29%

New compounds follow.
No. | SMILES | EPAC2 ag | EPAC2 antagonist | Abeta yeast res
9 | CC(C)(Sc1cc(C(C)(C)C)c(O)c(C(C)(C)C)c1)Sc1cc(C(C)(C)C)c(O)c(C(C)(C)C)c1 | 10% | -7% | -22%
10 | Nc1nc2c(ncn2COCCO)c(=O)[nH]1 | 0% | 10% | 0%
11 | COC1=CC(=O)CC(C)C12Oc1c(Cl)c(OC)cc(OC)c1C2=O (centres undefined) | 8% | -2% | -19%
12 | CC(C)(C)c1ccc(C(O)CCCN2CCC(C(O)(c3ccccc3)c3ccccc3)CC2)cc1 (centres undefined) | -2% | -1% | -10%
13 | CN(C)CCCN1c2ccccc2Sc2ccc(Cl)cc21 | 2%&5% | 5%&-14% | 1%&2%
14 | CC#C[C@]1(O)CC[C@H]2[C@@H]3CCC4=CC(=O)CCC4=C3[C@@H](c3ccc(N(C)C)cc3)C[C@@]21C | 5% | 3% | -33%
15 | N=C(N)c1ccc(/C=C/c2ccc(C(=N)N)cc2O)cc1 | 14% | 2% | -24%
16 | CC1=C(CC(=O)O)c2cc(F)ccc2/C1=C\c1ccc(S(C)=O)cc1 (centres undefined) | 3% | 10% | -16%

No. | aSyn rescue | FUS yeast rescue | TDP43 rescue
9 | -3% | -43% | 20%
10 | -2%&1%&-1% | -31% | 8%
11 | 4% | -17% | 17%
12 | -30%&-5% | 0% | 20%
13 | 2%&-1%&2%&5%&9% | -10%&-6% | ?
14 | 5%&2% | -25% | 20%
15 | -19%&-23% | -7% | 18%
16 | 29%&-4% | -16% | 17%

Additional structures
No. | SMILES | EPAC2 ag | EPAC2 antagonist | Abeta yeast res
17 | O=C(CCCN1CCN(c2ccccn2)CC1)c1ccc(F)cc1 | -1% | 17% | -21%
18 | COC(=O)C1C(O)CCC2CN3CCc4c([nH]c5ccccc45)C3CC21 (centres undefined) | 1% | -10% | 5%
19 | CN1CCc2cccc3c2[C@@H]1Cc1ccc(O)c(O)c1-3 | 1% | -11% | -24%
20 | CNC(CC(C)C)C(=O)NC1C(=O)NC(CC(N)=O)C(=O)NC2C(=O)NC3C(=O)NC(C(=O)NC(C(=O)O)c4cc(O)cc(O)c4-c4cc3ccc4O)C(O)c3ccc(c(Cl)c3)Oc3cc2cc(c3OC2OC(CO)C(O)C(O)C2OC2C[C@](C)(N)C(O)C(C)O2)Oc2ccc(cc2Cl)C1O (some centres undefined) | 8% | -3% | 8%
21 | CN(C)c1nc(N(C)C)nc(N(C)C)n1 | 3% | 0% | -15%
22 | Cn1c(NCCN(CCO)CCCc2ccc([N+](=O)[O-])cc2)cc(=O)n(C)c1=O | -2% | -1% | -1%
23 | CN1CCN(CCC=C2c3ccccc3Sc3ccc(S(=O)(=O)N(C)C)cc32)CC1 | -4% | 11% | -1%
24 | CN(C)CCCOc1nn(Cc2ccccc2)c2ccccc12 | 3% | 8% | -2%

No. | aSyn rescue | FUS yeast rescue | TDP43 rescue
17 | 16% | -25% | 6%
18 | -3% | -3% | 6%
19 | -2% | 20% | 11%
20 | 7% | -26% | 25%
21 | 8%&-1% | -35% | 1%
22 | -2% | -16% | 3%
23 | -1% | 5% | 0%
24 | 0% | -25% | 0%

Some values from the entries so far.
TDP43 rescue with cpd 24 = 0%
Abeta yeast res with cpd 19 = -24%

(more compounds)
No. | SMILES | EPAC2 ag | EPAC2 antagonist | Abeta yeast res
25 | COC(=O)[C@H]1[C@H]2C[C@H]3c4[nH]c5ccccc5c4CCN3C[C@H]2CC[C@@H]1O | 2% | 7% | -2%
26 | Nc1ncnc2c1ncn2C1O[C@H](CO)[C@@H](O)[C@@H]1O (some centres undefined) | 5% | 4% | -2%
27 | CN1CCc2cccc3c2[C@H]1Cc1ccc(O)c(O)c1-3 | 2%&8%&8% | 1%&-8%&2% | -22%&-16%&-16%
28 | CNC(CC(C)C)C(=O)NC1C(=O)NC(CC(N)=O)C(=O)NC2C(=O)NC3C(=O)NC(C(=O)NC(C(=O)O)c4cc(O)cc(O)c4-c4cc3ccc4O)C(O)c3ccc(c(Cl)c3)Oc3cc2cc(c3OC2OC(CO)C(O)C(O)C2OC2CC(C)(N)C(O)C(C)O2)Oc2ccc(cc2Cl)C1O (centres undefined) | 5% | -3% | 16%
29 | CC(=O)Nc1c(I)c(NC(C)=O)c(I)c(C(=O)O)c1I | 8%&-7% | -4%&3% | -22%&-3%
30 | O=C(C1CCCCC1)N1CC(=O)N2CCc3ccccc3C2C1 (centres undefined) | . | . | .
31 | NS(=O)(=O)c1cc2c(cc1Cl)NC=NS2(=O)=O | 10% | 16% | -17%
32 | CN1[C@@H]2CC(OC(=O)[C@H](CO)c3ccccc3)C[C@H]1[C@@H]1O[C@@H]12 (some centres undefined) | 0%&15%&8%&6% | -8%&-25%&-2%&9% | 13%&20%&-2%&7%

No. | aSyn rescue | FUS yeast rescue | TDP43 rescue
25 | -2%&-1% | -15% | 18%
26 | -1% | -30% | 8%
27 | 17%&9%&15% | -14%&-18%&6% | 4%&21%&0%
28 | 3% | 0% | 26%
29 | -2%&-6% | -42%&-33% | 19%&24%
30 | 9% | . | .
31 | 0%&-1% | -36% | 0%
32 | 2%&1%&2%&2% | -27%&-33%&-35%&-33% | 22%&5%&4%&0%

Going on with the list.
No. | SMILES | EPAC2 ag | EPAC2 antagonist | Abeta yeast res
33 | CCc1cc(Cl)c(OC)c(C(=O)NC[C@@H]2CCCN2CC)c1O | 6%&7% | -11%&10% | -17%&-10%
34 | CCN(Cc1ccncc1)C(=O)C(CO)c1ccccc1 (centres undefined) | -5% | 14% | -14%
35 | O=c1n(CCCN2CCN(c3cccc(Cl)c3)CC2)nc2ccccn12 | -2% | 17% | -6%
36 | COc1cc2c(cc1OC)C1Cc3ccc(OC)c(OC)c3CN1CC2 (centres undefined) | 5% | 7% | 18%
37 | CCCCCCCCCCCCCCCC(=O)NCCO | -4% | -14% | -7%
38 | O=C(O)/C=C/C(=O)O | 5% | 14% | -24%
39 | COc1ccc2c3c1OC1CC(O)C=CC31CCN(C)C2 (centres undefined) | 1%&1% | 0%&-16% | 2%&0%
40 | CCS(=O)(=O)CCn1c([N+](=O)[O-])cnc1C | 2% | 12% | -18%

No. | aSyn rescue | FUS yeast rescue | TDP43 rescue
33 | 4%&4% | -25%&-40% | 3%&22%
34 | 1%&1% | -32% | 2%
35 | 1%&0%&-2% | -36% | 36%
36 | -6% | 23% | 5%
37 | 0%&10% | -41% | 0%
38 | -5% | -18% | 18%
39 | -6%&0% | -12%&20% | -12%&11%
40 | -1% | -38% | ?

Next section, starting with the last three of the part before.
No. | SMILES | EPAC2 ag | EPAC2 antagonist | Abeta yeast res
38 | O=C(O)/C=C/C(=O)O | 5% | 14% | -24%
39 | COc1ccc2c3c1OC1CC(O)C=CC31CCN(C)C2 (centres undefined) | 1%&1% | 0%&-16% | 2%&0%
40 | CCS(=O)(=O)CCn1c([N+](=O)[O-])cnc1C | 2% | 12% | -18%
41 | CN(C)CCOC(c1ccccc1)c1ccccc1 (tested in a mixture with another compound) | -2% | 9% | -14%
42 | COc1cc([C@@H]2c3cc4c(cc3[C@@H](O[C@@H]3O[C@@H]5CO[C@@H](C)O[C@H]5[C@H](O)[C@H]3O)[C@H]3COC(=O)[C@H]23)OCO4)cc(OC)c1O | 6% | 3% | -13%
43 | O=C1CC[C@@H](C(=O)O)N1 | 6% | 15% | 1%
44 | CN1CCN2c3ncccc3Cc3ccccc3C2C1 (centres undefined) | 1% | -15% | 10%
45 | O=C1Cc2cc(CCN3CCN(c4nsc5ccccc45)CC3)c(Cl)cc2N1 | . | . | .
46 | CNCC(=O)O | 21% | -2% | -21%
47 | Clc1ccc(C(Cn2ccnc2)OCc2c(Cl)cccc2Cl)c(Cl)c1 (centres undefined) | 7% | ? | -79%[inhibitor]
48 | CCOC(=O)[C@H](CCc1ccccc1)N[C@H]1CCc2ccccc2N(CC(=O)O)C1=O | 2% | 14% | -10%

No. | aSyn rescue | FUS yeast rescue | TDP43 rescue
38 | -5% | -18% | 18%
39 | -6%&0% | -12%&20% | -12%&11%
40 | -1% | -38% | ?
41 | -6% | -18% | 3%
42 | -15% | -17% | 6%
43 | 9% | -32% | 3%
44 | 2% | -21% | ?
45 | 29% | . | .
46 | 4% | -43% | ?
47 | ? | 17% | ?
48 | 8% | -26% | 2%

Entries by screen from the entries so far.
Entries 44 to 47 in TDP43 rescue read ?, ., ?, ?

Compound profiles, as listed above. Order of screens: EPAC2 ag, EPAC2 antagonist, Abeta yeast res, aSyn rescue, FUS yeast rescue, TDP43 rescue
`CN(C)CCOC(c1ccccc1)c1ccccc1` (tested in a mixture with another compound) as listed: -2%, 9%, -14%, -6%, -18%, 3%
`CNCC(=O)O` as listed: 21%, -2%, -21%, 4%, -43%, ?
`Clc1ccc(C(Cn2ccnc2)OCc2c(Cl)cccc2Cl)c(Cl)c1` (centres undefined) as listed: 7%, ?, -79%[inhibitor], ?, 17%, ?
`O=C1Cc2cc(CCN3CCN(c4nsc5ccccc45)CC3)c(Cl)cc2N1` as listed: ., ., ., 29%, ., .

Other compounds follow.
No. | SMILES | EPAC2 ag | EPAC2 antagonist | Abeta yeast res
49 | NCCc1nc(-c2ccccc2)cs1 | 16% | -6% | -12%
50 | CC(=O)Oc1ccc(C(c2ccc(OC(C)=O)cc2)c2ccccn2)cc1 | 3% | -25% | -4%
51 | CSc1ccc2c(c1)N(CCC1CCCCN1C)c1ccccc1S2 (centres undefined) | 0% | -19% | 8%
52 | O=c1[nH]cnc2c1ncn2C1CCC(CO)O1 (centres undefined) | 4% | 6% | -18%

No. | aSyn rescue | FUS yeast rescue | TDP43 rescue
49 | 1% | 11% | -14%[9.22 µM]
50 | 6% | -16% | 24%
51 | -7%&0%&-7% | 3% | 13%
52 | -4% | -35% | ?
